GLA inh pH 4.5 – qHTS Assay for Inhibitors of Human alpha-Galactosidase at pH 4.5 | Alpha-galactosidase A (Homo sapiens), P06280 | purified enzyme, 4-MU-alpha-Gal fluorescence, pH 4.5 | activity change, negative = inhibition, % at 105 µM | 230,000 tested, under 10 active | AID 1467, 2008; inconclusive = small, poorly fitted or top-dose-only inhibition, or a rising curve; inactive = flat fitted curve, though single readings scatter; no compound was filed as active;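 further: 0% = full activity with enzyme and -100% = basal without enzyme; dose as in the result columns while the protocol names 77 µM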
Rango release inh – qHTS Assay for Inhibitors of RanGTP induced Rango (Ran-regulated importin-beta cargo) - Importin beta complex dissociation. Biochemical FRET Rango-importin beta, RanGTP-induced dissociation. Potency, µM (highest dose often 46.1 µM), without a hit: top-dose activity change, negative = inhibition. actives 0.071% (n = 340,000); active means falling FRET ratio curve, often poorly fitted, with flat reads before Ran was added; inconclusive means other falling curves, or compound fluorescence or quenching; inactive means flat or rising ratio curve;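 further: potency means the concentration at half of the fitted maximal effect; % of control where 0% means no effect; nearly all actives have a fitted effect of over 45% in size; -100% = wells without RanGTP and RCC1; the record marks most hits as doubtful in a second field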
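Rango/importin beta premix (0.1/0.25 uM final), PBS + 1 mM DTT + 0.02% Tween-20 + 0.1% BSA; cpd 5 min RT; FRET pre-read; + RanGTP-RCC1 (0.6 uM Ran, 2 mM GTP, 0.2 uM RCC1); 45 min RT; FRET post-read, ex 430, em 486/530 nm.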
miR-21 reporter – qHTS Assay for Modulators of miRNAs and/orActivators of miR-21; HeLa miR-21 FLuc reporter, luciferase, 48 h; Potency, µM (series often up to 38.3 µM), for inactives: top-dose reporter change, positive = more light; 340,000 tested, under 10 active; active = well fitted rising curve with a large enough effect; inconclusive = small, poorly fitted or top-dose-only effect; inactive = no such curve, though single readings can be large or run the other way;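 further: % of control where 0% means no effect; miR-21 action dims this reporter so a rising signal means less miR-21 action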
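HeLa cells endogenously expressing miR-21, stably carrying CMV-driven firefly luciferase with a downstream miR-21 binding site, 2000 cells/well. Titrations up to approximately 40 uM, 48 hours; luciferase luminescence read.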
Rango-impB inh – qHTS Assay for Inhibitors of Rango (Ran-regulated importin-beta cargo) - Importin beta complex formation. Potency, µM (titrated, usually from 92.2 µM), inactives show at the highest dose inhibition of complex formation. Rango CFP/YFP FRET sensor + importin beta, 45 min. actives 0.031% (n = 340,000). AID 540263, 2011. Importin subunit beta-1 (Homo sapiens), Q14974; active = rising FRET ratio curve, often small or poorly fitted; inconclusive = mostly compound fluorescence or quenching in the first reads; inactive = flat curves in all reads;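 further: potency means the concentration at half of the fitted maximal effect; 0% = DMSO wells and 100% = buffer wells lacking importin beta; nearly all actives have a fitted effect of over 15% in size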
Target sequence (Q14974 whole entry, looked up): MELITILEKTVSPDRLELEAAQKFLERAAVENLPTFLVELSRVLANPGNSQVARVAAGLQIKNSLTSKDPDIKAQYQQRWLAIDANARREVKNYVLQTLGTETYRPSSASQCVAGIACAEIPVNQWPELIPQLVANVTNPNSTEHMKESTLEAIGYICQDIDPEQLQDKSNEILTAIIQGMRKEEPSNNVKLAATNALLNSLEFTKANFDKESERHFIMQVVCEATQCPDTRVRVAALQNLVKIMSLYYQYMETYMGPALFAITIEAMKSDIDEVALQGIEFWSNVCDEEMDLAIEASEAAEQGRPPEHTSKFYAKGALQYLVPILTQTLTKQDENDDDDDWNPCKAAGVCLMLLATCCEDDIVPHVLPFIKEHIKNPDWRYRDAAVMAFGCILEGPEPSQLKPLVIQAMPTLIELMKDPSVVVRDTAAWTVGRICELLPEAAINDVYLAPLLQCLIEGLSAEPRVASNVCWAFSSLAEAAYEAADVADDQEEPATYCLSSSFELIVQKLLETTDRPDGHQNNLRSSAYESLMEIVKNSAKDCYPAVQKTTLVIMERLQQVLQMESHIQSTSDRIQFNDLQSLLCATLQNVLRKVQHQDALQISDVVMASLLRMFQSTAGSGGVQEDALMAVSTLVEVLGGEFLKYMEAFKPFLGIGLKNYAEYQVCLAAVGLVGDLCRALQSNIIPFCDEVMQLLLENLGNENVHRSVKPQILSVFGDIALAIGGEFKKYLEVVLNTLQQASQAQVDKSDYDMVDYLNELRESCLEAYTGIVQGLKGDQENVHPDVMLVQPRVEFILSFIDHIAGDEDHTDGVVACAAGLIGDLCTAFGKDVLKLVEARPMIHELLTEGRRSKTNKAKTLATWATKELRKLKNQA
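Inhibition scored from the CFP 486 nm/YFP 530 nm FRET ratio 45 min after adding 0.125 microM importin beta to 50 nM Rango biosensor preincubated 5 min with compound (room temperature, PBS with DTT, Tween-20, BSA). No-importin wells as positive control.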
* marks the source's active call; other numbers are inactive results; ? = inconclusive; nt = not tested or not shown; [ ] = dose if it differs, or a comment. The list is partial; rates above refer to the full screens.

Sample of the layout, two compounds:
cpd	GLA inh pH 4.5	Rango release inh	miR-21 reporter	Rango-impB inh	smiles
1	-6	-23%	-11%	1.6%	O=C1CC(SCc2nc3ccccc3[nH]2)C(=O)N1c1ccc(F)cc1 (stereo unspecified)
2	nt	11%	nt	-2.2%	COC(=O)[C@@]1(C)[C@H]2C(=O)N(Cc3ccccc3)C(=O)[C@H]2[C@H]2CN=C(SCc3ccccc3)N21

Results, from the first entry:
cpd	GLA inh pH 4.5	Rango release inh	miR-21 reporter	Rango-impB inh	smiles
1	-6	-23%	-11%	1.6%	O=C1CC(SCc2nc3ccccc3[nH]2)C(=O)N1c1ccc(F)cc1 (stereo unspecified)
2	nt	11%	nt	-2.2%	COC(=O)[C@@]1(C)[C@H]2C(=O)N(Cc3ccccc3)C(=O)[C@H]2[C@H]2CN=C(SCc3ccccc3)N21
3	7	-1%	6%	1.5%	O=C1NCCN1CCN1C(=O)c2ccccc2NC1c1ccccc1 (stereo unspecified)
4	nt	6%	nt	-2.4%	CC(C)CN1CCC(CN2CCNC(=O)C2=O)CC1
5	-5	-5%	1%	-0.1%	Cc1onc(-c2ccccc2)c1C(=O)N/N=C/c1cccs1
6	-1	5%	1%	0.0%	CC(C)n1nnnc1SCC(=O)NCc1cccs1
7	nt	4%	-5%	-2.4%	CCn1c(SCC(=O)NC2CC2)nnc1-c1ccc(C)cc1
8	nt	1%	nt	0.8%	Cc1ccc(S(=O)(=O)N2CCN(C(=O)CCCN3C(=O)NC4(CCCC4)C3=O)CC2)cc1C
9	-5	-12%	-1%	4.2%	COc1ccc(NC(=O)c2cccc(C#N)c2)cc1NS(=O)(=O)c1ccc(F)cc1
10	0	1%	-3%	3.6%	Cc1nnsc1C(=O)NC1CCCCC1
11	-11	2%	-8%	4.1%	CC(=O)c1cc(-c2ccccc2)n(CCC(=O)NCc2cccs2)c1C
12	nt	1%	-3%	-0.4%	CCOP(=O)(c1ccc(N(C)C)cc1)C(O)c1ccc(C)cc1 (stereo unspecified)
13	nt	0%	2%	0.1%	COC(=O)c1cn(C(=O)c2cc(Br)ccc2Cl)c2ccccc12
14	8	?	-11%	-0.7%	N#Cc1ccc(-c2ccc(Cl)cc2)nc1SCC(=O)c1cccc(Cl)c1
15	nt	-9%	-15%	0.4%	Cc1occc1C(=O)N(C)Cc1nc(-c2ccccc2)no1
16	-4	19%	-33%	3.4%	COc1ccc(-c2nnc(SCC(=O)N3CCCCC3)o2)c(OC)c1
17	nt	-1%	nt	0.5%	COc1ccc(-c2csc3ncnc(N4CCN(S(=O)(=O)c5ccc(C)c(C)c5)CC4)c23)cc1
18	nt	4%	5%	6.0%	COCc1ccc(CN2CCC(C(=O)Nc3cccc(-c4cscn4)c3)CC2)o1
19	nt	-8%	-10%	0.0%	Cc1ccc(NC(=O)CCc2nnc3ccc(N4CCC(C)CC4)nn23)nc1
20	nt	-21%	-12%	-0.4%	COc1ccc(NC(=O)C/C(C)=N/NC(=O)c2cnccn2)c(OC)c1
21	17	0%	0%	-0.1%	COc1ccc(-c2cc(N)n(CCC#N)n2)c(OC)c1
22	nt	-16%	nt	-1.3%	COc1ccc(C2=CC(=O)C[C@H](c3ccc(F)cc3)C2)cc1OC
23	nt	9%	-6%	6.1%	COCCCn1c(=O)c2ccccc2n(Cc2cc(C(=O)OC)ccc2OC)c1=O
24	-6	-10%	0%	-2.0%	O=C(COC(=O)/C=C/c1cccc([N+](=O)[O-])c1)NCc1ccc2c(c1)OCO2
25	nt	7%	nt	1.9%	CN(Cc1ccc(F)cc1)C(=O)c1cccc(S(=O)(=O)N2CCN(c3ccccc3)CC2)c1
26	9	-7%	1%	-2.7%	Cc1cnnn1-c1ccc([N+](=O)[O-])cc1
27	4	-10%	-4%	-1.3%	O=C(Cn1ncc2c(=O)oc3ccccc3c21)NCC1CCCO1 (stereo unspecified)
28	nt	-3%	nt	-2.5%	CCC/C(C#Cc1ccsc1)=C1/c2ccccc2C(=O)N1c1ccccc1
29	-2	?	-3%	?	C=CCSC1=N/C(=C\c2ccc3c(c2)OCO3)C(=O)S1
30	-6	-1%	3%	-1.1%	Cc1cccc(OCC(=O)NCc2cc(C)nc3ccccc23)c1
31	6	18%	-15%	-0.4%	O=C(NCc1ccccc1)c1nc2ccccc2s1
32	-1	13%	6%	?	O=C(c1cc(Cl)nc2ccccc12)N1CCc2ccccc2C1
33	-13	18%	0%	-0.9%	Cc1cc(C)c(NC(=O)c2ccc(S(=O)(=O)N3CCOCC3)cc2)c(C)c1
34	-1	-13%	0%	2.4%	COc1cc(O)c2c(c1)COC2=O
35	5	-1%	-4%	-0.9%	Cc1cc(C(C#N)c2cccc(Cl)c2)n2ncnc2n1 (stereo unspecified)
36	-12	-4%	-6%	-0.2%	COc1ccc(CN2CCn3ncc(C(=O)Nc4cc(C)cc(C)c4)c3C2=O)cc1
37	6	0%	2%	0.4%	CCN1C(=O)CC(N2CCC(C(=O)N3CCCCCC3)CC2)C1=O (stereo unspecified)
38	-1	2%	1%	?	O=C(O)CSc1nnc(-c2cccc(S(=O)(=O)N3CCCCC3)c2)o1
39	nt	12%	nt	?	CN(CC(=O)NCc1ccc2c(c1)OCO2)S(=O)(=O)c1ccc(Cl)cc1
40	7	-6%	-1%	1.7%	CCOc1ccccc1NC(=O)COC(=O)CC(NC(N)=O)c1ccc(Cl)cc1 (stereo unspecified)
41	-1	0%	-24%	0.3%	O=C(NCCc1ccccc1)c1cc2ncc(Br)cn2n1
42	nt	-1%	nt	?	O=S(=O)(O)c1ccc(O)c2cc(Nc3ccccc3)ccc12
43	4	2%	-1%	-0.1%	CSc1ccc(CCNC(=O)C2CCN(c3nnc(-n4cccc4)s3)CC2)cc1
44	1	1%	-5%	0.7%	COc1ccc(NC(=O)C2CC2)cc1-n1cnnn1
45	7	8%	0%	?	CCNC(=O)COc1ccc(/C=N/NC(=O)c2cccnc2)cc1OC
46	2	6%	-1%	1.7%	CNC(=O)NC(=O)COC(=O)CCc1nc(=O)c2ccccc2n1C
47	nt	10%	?	5.0%	Cc1n(Cc2ccccc2)c2ccccc2[n+]1Cc1ccccc1
48	nt	39%	-3%	-5.6%	Cc1ccc(NC(=O)C2C3CCC(O3)C2C(=O)O)cc1Cl (stereo unspecified)
49	2	8%	-1%	-0.4%	O=c1c2nnn(-c3ccc(Br)cc3)c2ncn1Cc1ccccn1
50	nt	0%	-6%	-4.3%	C/C(CC(=O)NC1CCCCC1)=N\NC(=O)c1ccc(Br)cc1
51	nt	1%	6%	5.1%	COc1cc(C#N)ccc1OC(=O)Cc1cc(OC)c(OC)c(OC)c1
52	nt	-5%	6%	-0.1%	Cc1ccc(NC(=O)c2ccccc2N2C(=O)C3C4C=CC(C5CC45)C3C2=O)cc1C (stereo unspecified)
53	1	13%	0%	-0.3%	COc1ccc(NC(=S)NN(C)C(=S)Nc2ccc(OC)cc2)cc1
54	nt	22%	-4%	3.1%	CC1CN(C(=O)Cn2c(=O)oc3ccccc32)CC(C)O1 (stereo unspecified)
55	1	-1%	-9%	-0.3%	COC(=O)C1CCN(C(=O)c2ccccc2Oc2ccccc2)CC1
56	2	-2%	-4%	0.0%	O=C(NC1CCCC1)C1CCCN1C(=O)Nc1ccccc1 (stereo unspecified)
57	nt	1%	-4%	-1.8%	CCC(C(=O)N1CCOCC1)n1c2ccccc2c2nc(=O)cc(C)n21 (stereo unspecified)
58	3	28%	-21%	3.7%	Cc1nc(OCc2ccccc2)c2sc3nc4c(cc3c2n1)COC(C)(C)C4
59	nt	1%	2%	1.6%	O=C(CCCN1C(=O)/C(=C\c2ccco2)SC1=S)Nc1ccc(O)cc1C(=O)O
60	-11[21.1 µM]	-15%	-9%	2.2%	COc1ccc(CN(Cc2ccc(C(=O)O)cc2)C(=S)Nc2ccc(C)cc2)cc1OC

Other compounds:
cpd	GLA inh pH 4.5	Rango release inh	miR-21 reporter	Rango-impB inh	smiles
61	-1	-4%	-6%	-0.5%	CC(C)c1cccc(C(C)C)c1NC(=O)COc1nncc2ccccc12
62	nt	0%	-7%	?	NC(=O)c1nsc(C(=O)N(CC(=O)NC2CCCC2)c2ccc(F)c(Cl)c2)c1N
63	nt	-17%	5%	0.5%	CCN(CC)S(=O)(=O)c1cccc(C(=O)NCC2CCCCC2)c1
64	nt	?	nt	-3.7%	COc1ccc(C2=CC(=O)C[C@H](c3ccc(Cl)cc3)C2)cn1
65	nt	5%	nt	-1.5%	COc1ccc(CNC(=O)C2(CC3CC(c4ccccc4)=NO3)CCNCC2)cc1 (stereo unspecified)
66	4	7%	-8%	2.7%	O=C1c2ccccc2C(=O)N1Cc1nc(-c2ccccn2)no1
67	-6	-2%	-10%	-4.6%	CN(C)/N=C/c1ccc(Sc2ccc([N+](=O)[O-])cc2[N+](=O)[O-])o1
68	nt	8%	-6%	5.2%	O=C(c1cc2cc(Cl)ccc2[nH]1)N1CCN(C(=O)c2ccco2)CC1
69	5	-3%	-5%	0.5%	CCOCCCn1c(C)nc2c(c1=O)c1nc3ccccc3nc1n2CCC1=CCCCC1
70	8	-3%	0%	-1.3%	O=C(COc1ccc([N+](=O)[O-])cc1)NC(C(=O)O)C(O)c1cccc([N+](=O)[O-])c1 (stereo unspecified)
71	-2	-9%	1%	-0.9%	O=C(CCC1CCCCC1)Nc1c2c(nn1-c1ccc(F)cc1)CS(=O)C2 (stereo unspecified)
72	-3	22%	-8%	2.3%	COCCCNC(=O)CC(NCCCOC)C(=O)O (stereo unspecified)
73	nt	0%	0%	-1.3%	O=C(Nc1ccccc1-c1nc2ccccc2[nH]c1=O)c1cccs1
74	6	-8%	8%	-2.8%	CCCCC(=O)Nc1ccc(C(=O)Nc2ccc(S(=O)(=O)N3CCCC3)cc2)cc1
75	5	-25%	1%	-1.4%	c1ccc2nc(N3CCCC3)c(N3CCCC3)nc2c1

4 of the entries above in order of the miR-21 reporter value, falling:
cpd	GLA inh pH 4.5	Rango release inh	miR-21 reporter	Rango-impB inh	smiles
33	-13	18%	0%	-0.9%	Cc1cc(C)c(NC(=O)c2ccc(S(=O)(=O)N3CCOCC3)cc2)c(C)c1
46	2	6%	-1%	1.7%	CNC(=O)NC(=O)COC(=O)CCc1nc(=O)c2ccccc2n1C
29	-2	?	-3%	?	C=CCSC1=N/C(=C\c2ccc3c(c2)OCO3)C(=O)S1
36	-12	-4%	-6%	-0.2%	COc1ccc(CN2CCn3ncc(C(=O)Nc4cc(C)cc(C)c4)c3C2=O)cc1

Other records.
cpd	GLA inh pH 4.5	Rango release inh	miR-21 reporter	Rango-impB inh	smiles
76	nt	2%	-4%	3.7%	Cc1onc(-c2ccccc2)c1C(=O)NCc1cccc(Cl)c1
77	-11	-7%	-1%	-2.2%	Cc1ccc(NC(=O)CN(C)c2ccc(S(=O)(=O)N3CCN(C)CC3)cn2)cc1
78	-3	11%	-1%	3.9%	Cc1cccc(C)c1NC(=O)CN1C(=O)S/C(=C\c2cccn2C)C1=O
79	-6	8%	-12%	2.2%	Cc1cccc(-n2nc(C)c3c(C(=O)O)cc(-c4cccs4)nc32)c1
80	nt	-8%	nt	-2.4%	COc1cccc(COC(=O)c2cc(S(=O)(=O)N3CCCCC3)ccc2N2CCOCC2)c1OC
81	-2	-6%	-1%	-2.7%	CN(C)C(=O)c1ccc(OCC(F)(F)F)nc1
82	-2	2%	-9%	2.8%	O=C(CSc1nc2ccccc2n1Cc1ccccc1)N/N=C/c1ccccc1C(=O)O
83	nt	3%	nt	0.4%	CC(C)CNC(=O)/C=C/C=C/c1ccc2c(c1)OCO2
84	1	0%	-2%	-0.4%	Cn1c(=O)[nH]c(Nc2ccccc2)c([N+](=O)[O-])c1=O
85	nt	0%	nt	-3.0%	COc1ccc(CNC(=O)Cn2cnc3c(OCc4ccccc4)ncnc32)cc1
86	nt	-2%	nt	6.7%	O=C(CNC(=O)c1ccc(Cl)cc1Cl)OCn1nnc2ccccc2c1=O
87	1	7%	-36%	-1.1%	Cc1ccc(-c2cccc(C(=O)NCCc3ccccc3)n2)c2ccccc12

Screening results as filed in PubChem BioAssay.
